# Bioassay records as filed in PubChem BioAssay.
# HCMV UL50-53 inh – inhibitors of HCMV UL50-UL53 nuclear egress complex interaction. inhibition, % (no concentration beside the values). AID 1918969. actives 0.15% (n = 190,000). HTRF UL50-UL53 interaction, normalized percent inhibition;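 active = both replicates at 50% or more, plus weaker picks with an unusually low signal ratio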;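 also: stock transfer was 100 nL into about 20 µL; 0% = negative control wells and 100% = wells with untagged competitor protein; inactives centre near -12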
# Sa growth 42C – blocks Staphylococcus aureus growth. AID 720641. relative growth, % (test concentration not listed). actives 0.53% (n = 170,000). S. aureus RN4220 growth, OD600, 20 h, 42 °C; hits give low values;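 active = growth at 42 °C up to 50% and 20 or more points under that at 30 °C, or under 10% at both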;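 also: 300 nL library stock went into each well; scaled to the means of positive and negative controls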
# GIV-Gai inh – blocks GIV peptide binding to rat Galpha-i3; Galpha-i3/FITC-GIV peptide fluorescence polarization, 90 min; hits give low values; scaled: aluminum fluoride 0%, vehicle 100%; percent of control (FP), % (no concentration beside the values); actives 0.42% (n = 210,000);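 active = replicate mean at 85% of control or lower, very high polarization wells dropped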;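 also: wells of about 15 µL received 100 nL stock; the first replicate is given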
# Target sequence (P08753 whole entry, looked up): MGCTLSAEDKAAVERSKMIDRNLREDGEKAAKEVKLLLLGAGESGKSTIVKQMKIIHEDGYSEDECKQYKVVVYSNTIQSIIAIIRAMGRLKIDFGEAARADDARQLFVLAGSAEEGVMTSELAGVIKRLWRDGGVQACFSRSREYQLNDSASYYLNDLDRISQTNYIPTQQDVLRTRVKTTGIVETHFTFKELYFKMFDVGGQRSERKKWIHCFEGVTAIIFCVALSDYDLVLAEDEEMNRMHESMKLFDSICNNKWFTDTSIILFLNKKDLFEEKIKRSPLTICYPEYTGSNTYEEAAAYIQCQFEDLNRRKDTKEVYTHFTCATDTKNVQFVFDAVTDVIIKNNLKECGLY
# Sa growth 42C second temp – second read-out of Sa growth 42C, no call of its own (marks repeat the call); relative growth, %; measured here: growth at 30 °C;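 optical density after 20 h as mean of two plates; 100% = untreated growth and lower means inhibition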
# An asterisk follows results filed as active; / = not tested or not shown; & = joins results of further samples.
# Results follow in this order: HCMV UL50-53 inh | Sa growth 42C | Sa growth 42C second temp | GIV-Gai inh
- O=S1(=O)C=CC(c2ccccc2)C1 (stereo not given)
 : -12 | 91 | 83 | 103
- O=C(O)CNC(=O)C(CS)Cc1ccccc1 (stereo not given)
 : 1&-2&-14 | / | / | 92
- O=C(c1ccc(CS(=O)(=O)c2ccc(C(F)(F)F)cn2)o1)N1CCOCC1
 : -12 | 91 | 86 | 104
- CCNC(=O)NCCC12CC3CC(CC(C3)C1)C2
 : -14 | 89 | 96 | /
- CC(C)(C)NCC(=O)Nc1ccc(F)cc1Cl
 : -14 | 93 | 93 | /
- O=C(Nc1cc(F)ccc1F)C1CCN(C(=O)c2cnn(-c3ccccc3)c2-n2cccc2)CC1
 : -24 | 100 | 77 | 103
- Cc1noc2nc(CCC(=O)O)nc(N3CCCC3)c12
 : -22 | / | / | 95
- CCCOc1ccccc1NC(=O)c1ccc(N)cc1
 : -8 | 107 | 87 | 97
- N#Cc1ccc(CSc2ccc(Cl)cc2)cc1
 : -16 | 89 | 90 | 96
- O=C(/C=C/c1ccco1)NCC1(c2ccccc2)CCOCC1
 : -52 | 85 | 80 | 108
- CCc1nn(CC(=O)NCCCc2ccccc2)c(=O)c2cc3cc(F)ccc3n12
 : -26 | 85 | 81 | 95
- Cc1cccc(-n2cc(-c3ccccc3)c3c(NC(C)C)ncnc32)c1
 : / | 95 | 80 | 112
- Cc1cccc(Oc2nc3c(c(=O)n(C)c(=O)n3C)n2C)c1C
 : -3 | 106 | 99 | 105
- COc1cc(S(=O)(=O)NC(C)(C)CC(C)(C)C)ccc1NC(C)=O
 : 0 | 97 | 97 | /
- Cc1cccc(NC(=O)C2(c3ccccc3)CCOCC2)c1
 : -14 | 97 | 84 | /
- CCOC(=O)Cc1cc(=O)n2[nH]cc(C#N)c2n1
 : -1 | 90 | 79 | 101
- O=C(O)CC(C(=O)O)N1C(=O)/C(=C/c2ccc(Cl)cc2)SC1=S (stereo not given)
 : -56 | / | / | 106
- O=C(COCc1cc(-c2cccs2)on1)N1CCN(c2ccccc2)CC1
 : / | 87 | 85 | 98
- CCOc1cc(C2C(C(=O)OC)=C(C)NC3=C2C(=O)CC(c2ccc(OC)cc2)C3)cc(Cl)c1O (stereo not given)
 : -24 | / | / | 100
- Cc1ccccc1Nc1nc(N)nc(CSc2nnc(-c3ccccc3F)o2)n1
 : 11 | 99 | 92 | /

# Compound profiles, from the list above. Order of values: HCMV UL50-53 inh, Sa growth 42C, Sa growth 42C second temp, GIV-Gai inh
# O=S1(=O)C=CC(c2ccccc2)C1 (stereo not given) is listed as -12, 91, 83, 103
# CCCOc1ccccc1NC(=O)c1ccc(N)cc1 is listed as -8, 107, 87, 97
# O=C(/C=C/c1ccco1)NCC1(c2ccccc2)CCOCC1 is listed as -52, 85, 80, 108

# A few values from the entries so far.
# In Sa growth 42C second temp, `COc1cc(S(=O)(=O)NC(C)(C)CC(C)(C)C)ccc1NC(C)=O` reads 97
# In HCMV UL50-53 inh, `Cc1ccccc1Nc1nc(N)nc(CSc2nnc(-c3ccccc3F)o2)n1` reads 11
# In Sa growth 42C second temp, `CCOC(=O)Cc1cc(=O)n2[nH]cc(C#N)c2n1` reads 79
# In GIV-Gai inh, `CCOc1cc(C2C(C(=O)OC)=C(C)NC3=C2C(=O)CC(c2ccc(OC)cc2)C3)cc(Cl)c1O` (stereo not given) reads 100
# In HCMV UL50-53 inh, `O=S1(=O)C=CC(c2ccccc2)C1` (stereo not given) reads -12

# More compounds
# Results follow in this order: HCMV UL50-53 inh | Sa growth 42C | Sa growth 42C second temp | GIV-Gai inh
- COc1ccc(-c2nnc(SCCOc3ccc(Cl)cc3)o2)cc1
 : -7 | 103 | 92 | /
- CC(C)(C)c1ccc(C(=O)CC#N)s1
 : 11 | 110 | 98 | 102
- Cc1ccc2c(c1)c(=O)n(CCCOC(C)C)c1nnc(SCc3ccc(F)cc3Cl)n21
 : -15 | / | / | 96
- CSC1=NC(C)(C)Cc2c(C)cccc21
 : -8 | 102 | 90 | /
- Cn1ccc(NC(=O)C(c2ccccc2)c2ccccc2)n1
 : -10 | 130 | 96 | /
- O=C(COC(=O)c1cccnc1Nc1cccc(C(F)(F)F)c1)NCc1ccco1
 : -26 | 83 | 89 | /
- Cc1ccc(-c2nc3c(C)cccn3c2Nc2ccccc2C)s1
 : -5 | 107 | 93 | 103
- Cc1ccc(NC(=O)C(=O)NCCc2sc(-c3ccc(Cl)cc3)nc2C)cc1C
 : / | 95 | 101 | 111
- COc1ccc(S(=O)(=O)Nc2sccc2C#N)cc1
 : -7 | 92 | 87 | 104
- O=c1c(-c2ccccc2)c(N2CCc3ccccc32)c1=O
 : -36 | / | / | 109
- Cc1ccc(Cl)cc1Nc1nn2c(=O)c3ccc(C(=O)NC(C)c4ccccc4)cc3nc2s1 (stereo not given)
 : / | 104 | 98 | 103
- CCOc1cc(C(=O)OCCN2C(=O)c3ccccc3C2=O)ccc1OCC(=O)N1CCCCC1
 : 2 | 101 | 93 | /
- Cc1ccc(Cl)cc1N(C)C(=O)Cn1nc(Cc2cccnc2)c2ccccc2c1=O
 : -24 | 121 | 89 | 107
- COCCOC(=O)C1=C(C)NC2=C(C(=O)CC(c3ccc(Cl)cc3)C2)C1c1ccc(OC(C)=O)cc1 (stereo not given)
 : -34 | / | / | 108
- Cc1nc(-c2cccc(F)c2)sc1CCNC(=O)Cc1ccc(F)cc1
 : / | 93 | 95 | 111
- CC1(C)CC(=O)c2cc(C(=O)NCCC3=CCCCC3)c(=O)n(-c3ccccc3)c2C1
 : / | 113 | 87 | 97
- O=C(NC1CCCCC1)c1ccc2c(=O)n(CC3CCCO3)c(=O)[nH]c2c1 (stereo not given)
 : 7 | 113 | 97 | 109
- Cc1ccc(C2CC(=O)C(C=NCCN3CCNCC3)=C(O)C2)cc1 (stereo not given)
 : 13 | 100 | 105 | 104
- COc1ccc(C2C(C(=O)NCCCN3CCN(C)CC3)c3ccccc3C(=O)N2Cc2ccc(F)cc2)cc1 (stereo not given)
 : -5 | 112 | 88 | 94
- O=c1c2c3c(sc2nc2ccc(N4CCCCC4)nn12)CCCC3
 : -22 | 116 | 80 | 107
- COc1ccc(Cl)cc1NN
 : -12 | 86 | 75 | /
- CCSCCOC(=O)C1=C(C)NC2=C(C(=O)CC(c3ccccc3)C2)C1c1cccc(OC)c1OC (stereo not given)
 : -15 | / | / | 102
- Cc1ccc2nc(N3CCN(c4ccc(F)cc4)CC3)c3nnnn3c2c1
 : / | 99 | 77 | 135
- Cc1nnc(SCc2cc(=O)c3ccccc3[nH]2)s1
 : / | 104 | 97 | 99
- COc1cc(NC(=O)c2nn3c(c2Br)NC(c2ccccc2)CC3C(F)(F)F)cc(OC)c1OC (stereo not given)
 : -24 | / | / | 93
- COc1cccc(NC(=O)Cn2c(-c3cccc(OC)c3)nc3sc4c(c3c2=O)CCCC4)c1
 : 2 | / | / | 107
- CC1(C)CC(OC(=O)CCC(=O)OC2CC(C)(C)NC(C)(C)C2)CC(C)(C)N1
 : -2 | 104 | 96 | 106
- COc1ccc(CNC(=O)CCn2c(=O)c3sccc3n(CC(=O)N3CCCCC3C)c2=O)cc1 (stereo not given)
 : / | 115 | 97 | 99
- CN1CCN(C(=S)SCC(=O)N2CCCc3ccccc32)CC1
 : -13 | 107 | 98 | /
- Cn1c(=O)oc2cc(S(=O)(=O)N3CCC(C(=O)NCCc4ccc(Cl)cc4)CC3)ccc21
 : / | 94 | 86 | 102
- Cc1ccc(C)c(N2CCN(C(=O)NCc3noc4ccc(C)cc34)CC2)c1
 : / | 103 | 90 | 105
- N#Cc1cccc(C#N)c1Oc1ccc(S(=O)(=O)NCc2ccco2)cc1
 : -11 | 105 | 94 | 110
- O=C(O)/C=C/C(=O)Nc1ccccc1C(=O)O
 : -4 | 104 | 88 | 105
- CCOc1cc(C2C(C#N)=C(N)Oc3n[nH]c(-c4ccccc4)c32)ccc1OC(=O)N1CCOCC1 (stereo not given)
 : -9 | / | / | 102
- O=C(COC(=O)/C=C/c1ccc2c(c1)OCO2)Nc1ccccc1
 : -36 | 85 | 87 | /
- Cc1ccc(C(C)C)c(OCC(=O)Nc2c(C(=O)c3ccc(F)cc3)oc3ccccc23)c1
 : -5 | 93 | 87 | 106
- COc1ccc(CN2C(=O)CC(C(=O)O)SC2=Nc2ccccc2)cc1 (stereo not given)
 : -8 | 95 | 92 | 104
- N#CCCn1cc(Cl)c(=O)c(Cl)c1
 : -9 | 110 | 91 | 103
- CCCC1(CCC)NC(=O)N(Cc2ccc(-c3ccc(Br)cc3)o2)C1=O
 : -21 | 68 | 34 | /
- O=c1c2ccccc2sn1-c1nc2ccccc2s1
 : -20 | 75 | 91 | /
- O=C(NCc1cccs1)C1c2ccccc2C(=O)N(C2CCCC2)C1c1cccs1 (stereo not given)
 : -22 | 80 | 82 | 100
- C/C(=C(/C#N)P(=O)(c1ccccc1)c1ccccc1)N1CCOCC1
 : -8 | 105 | 94 | /
- COc1ccccc1N1CCN(Cc2cc(Cl)c(O)c3ncccc23)CC1
 : -7&-15 | 89 | 80 | 94
- COc1ccc(C(=O)CSc2nnc(CN3CCCC3)o2)cc1F
 : -27 | 89 | 85 | /
- Cc1ccc(NC(=O)Cc2coc3ccc4ccccc4c23)nc1
 : -7 | 105 | 84 | 105
- CCCOc1ccc(-c2nonc2NC(=O)c2ccco2)cc1OCCC
 : 19 | 93 | 88 | 102
- CC(NC(=O)c1ccncc1)C(c1cccs1)N1CCN(Cc2ccccc2)CC1 (stereo not given)
 : / | 90 | 89 | 104
- Cc1noc(C)c1C(=O)Nc1ccc(S(=O)(=O)N2CCCc3ccccc32)cc1
 : -4 | 116 | 116 | 106
- Cc1ccc2c(c1)N(CCCC(=O)Nc1cccc(F)c1)C(=O)CO2
 : -9 | / | / | 108
- CC1(C)Cc2nc(N)c(C#N)cc2CO1
 : -37 | 85 | 102 | 102
- Cc1cc(C)cc(NC(=S)N(CCCN2CCOCC2)C(C)c2cc3ccccc3o2)c1 (stereo not given)
 : / | 145 | 38 | 101
- O=C(NCc1ccccc1)c1cccc(S(=O)(=O)N2CCCC2)c1
 : 0 | 102 | 90 | /
- CCn1c(=O)[nH]c(=O)c2c(C(F)(F)F)cc(-c3ccc(C)cc3)nc21
 : 0 | 89 | 90 | /
- CC(=O)Nc1ccc(S(=O)(=O)NCc2ccc3c(c2)CCN3C(C)=O)cc1
 : / | 96 | 100 | 109
- CCN1C(=O)C(CC(=O)Nc2ccc(F)cc2)N(CCc2ccccc2)C1=S (stereo not given)
 : / | 78 | 42 | 96
- O=S1(=O)CCN(Cc2ccc(NS(=O)(=O)c3ccc(Cl)cc3)cc2)CC1
 : -8 | 90 | 86 | 103
- Cn1c(=NC(=O)c2ccc(F)cc2)sc2ccccc21
 : / | 117 | 72 | 103
- O=C(COc1ccc(/C=c2/sc3nc4ccccc4n3c2=O)cc1)N1CCCC1
 : / | 114 | 87 | 103
- CCOC(=O)C1CCCN(c2ncnc3[nH]ncc23)C1 (stereo not given)
 : -6 | 85 | 98 | /

# A draw from above in order of count of non-hydrogen atoms, ascending:
# Results follow in this order: HCMV UL50-53 inh | Sa growth 42C | Sa growth 42C second temp | GIV-Gai inh
- CC1(C)Cc2nc(N)c(C#N)cc2CO1
 : -37 | 85 | 102 | 102
- C/C(=C(/C#N)P(=O)(c1ccccc1)c1ccccc1)N1CCOCC1
 : -8 | 105 | 94 | /
- O=C(COc1ccc(/C=c2/sc3nc4ccccc4n3c2=O)cc1)N1CCCC1
 : / | 114 | 87 | 103

# Pulled one by one from the list above (3):
# Results follow in this order: HCMV UL50-53 inh | Sa growth 42C | Sa growth 42C second temp | GIV-Gai inh
- O=C(NCc1cccs1)C1c2ccccc2C(=O)N(C2CCCC2)C1c1cccs1 (stereo not given)
 : -22 | 80 | 82 | 100
- CCn1c(=O)[nH]c(=O)c2c(C(F)(F)F)cc(-c3ccc(C)cc3)nc21
 : 0 | 89 | 90 | /
- CCN1C(=O)C(CC(=O)Nc2ccc(F)cc2)N(CCc2ccccc2)C1=S (stereo not given)
 : / | 78 | 42 | 96
